GLA inh pH 4.5 = qHTS Assay for Inhibitors of Human alpha-Galactosidase at pH 4.5; purified enzyme, 4-MU-alpha-Gal fluorescence, pH 4.5; activity change, negative = inhibition, % at 105 µM; 230,000 tested, under 10 active; AID 1467, 2008; inconclusive = small, poorly fitted or top-dose-only inhibition, or a rising curve; inactive = flat fitted curve, though single readings scatter; no compound was filed as active;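 note: 0% = full activity with enzyme and -100% = basal without enzyme; dose as in the result columns while the protocol names 77 µM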
miR-21 reporter = qHTS Assay for Modulators of miRNAs and/orActivators of miR-21; 340,000 tested, under 10 active; AID 2288, 2010; Potency, µM (highest dose often 38.3 µM), for inactives: at the highest dose reporter change, positive = more light; HeLa miR-21 FLuc reporter, luciferase, 48 h; active = well fitted rising curve with a large enough effect; inconclusive = small, poorly fitted or top-dose-only effect; inactive = no such curve, though single readings can be large or run the other way;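 note: % of control where 0% means no effect; miR-21 action dims this reporter so a rising signal means less miR-21 action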
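Compounds were titrated across several concentrations (up to approximately 40 uM) and incubated 48 hours with HeLa miR-21-FLuc reporter cells (miR-21 target sequence downstream of FLuc, endogenous miR-21). Readout was firefly luciferase luminescence after lytic detection reagent.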
Rango-impB inh = qHTS Assay for Inhibitors of Rango (Ran-regulated importin-beta cargo) - Importin beta complex formation | Importin subunit beta-1 (Homo sapiens), Q14974 | actives 0.031% (n = 340,000) | Rango CFP/YFP FRET sensor + importin beta, 45 min | AID 540263, 2011 | Potency, µM (titrated, usually from 92.2 µM), for inactives: at the top dose inhibition of complex formation; active = rising FRET ratio curve, often small or poorly fitted; inconclusive = mostly compound fluorescence or quenching in the first reads; inactive = flat curves in all reads;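 note: potency is the fitted concentration of half-maximal effect; 0% = DMSO wells and 100% = buffer wells lacking importin beta; nearly all actives have a fitted effect of over 15% in size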
Target sequence (Q14974 whole entry, looked up): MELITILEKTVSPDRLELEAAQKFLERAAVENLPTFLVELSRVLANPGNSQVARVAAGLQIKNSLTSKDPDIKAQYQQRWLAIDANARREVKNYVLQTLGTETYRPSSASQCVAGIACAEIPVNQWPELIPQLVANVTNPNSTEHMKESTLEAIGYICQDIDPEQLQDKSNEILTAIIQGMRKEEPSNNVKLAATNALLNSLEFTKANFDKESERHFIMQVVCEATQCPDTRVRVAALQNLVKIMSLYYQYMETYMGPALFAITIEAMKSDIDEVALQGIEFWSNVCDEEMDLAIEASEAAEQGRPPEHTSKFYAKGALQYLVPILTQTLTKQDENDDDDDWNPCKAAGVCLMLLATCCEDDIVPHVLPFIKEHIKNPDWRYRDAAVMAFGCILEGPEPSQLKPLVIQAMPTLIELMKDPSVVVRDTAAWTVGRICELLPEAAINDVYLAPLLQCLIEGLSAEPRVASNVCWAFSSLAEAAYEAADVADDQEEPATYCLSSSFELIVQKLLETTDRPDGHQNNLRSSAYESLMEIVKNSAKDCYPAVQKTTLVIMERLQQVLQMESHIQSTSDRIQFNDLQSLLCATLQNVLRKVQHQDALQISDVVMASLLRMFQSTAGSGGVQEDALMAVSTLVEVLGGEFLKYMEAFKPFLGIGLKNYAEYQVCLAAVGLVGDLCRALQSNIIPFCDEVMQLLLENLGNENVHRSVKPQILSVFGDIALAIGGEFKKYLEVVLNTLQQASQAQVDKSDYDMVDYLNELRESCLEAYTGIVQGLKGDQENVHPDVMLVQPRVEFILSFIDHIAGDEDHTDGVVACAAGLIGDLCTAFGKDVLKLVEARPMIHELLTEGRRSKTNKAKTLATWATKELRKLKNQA
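FRET biosensor (snurportin 1 IBB flanked by EYFP and cerulean), 50 nM, with compound 5 min, then 0.125 microM importin beta in PBS, 1 mM DTT, 0.02% Tween-20, 0.1% BSA. CFP/YFP ratio read after 45 min at room temperature; pre-read flags interference.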
Rango dissoc inh = qHTS Assay for Inhibitors of RanGTP induced Rango (Ran-regulated importin-beta cargo) - Importin beta complex dissociation; actives 0.071% (n = 340,000); Snurportin-1 (Homo sapiens) + GTP-binding nuclear protein Ran (Homo sapiens) + Importin …; Potency, µM (top dose mostly 46.1 µM), without a hit: at the highest dose activity change, negative = inhibition; Biochemical FRET Rango-importin beta, RanGTP-induced dissociation; active means falling FRET ratio curve, often poorly fitted, with flat reads before Ran was added; inconclusive means other falling curves, or compound fluorescence or quenching; inactive means flat or rising ratio curve;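 note: potency is the fitted concentration of half-maximal effect; % of control where 0% means no effect; nearly all actives have a fitted effect of over 45% in size; -100% = wells without RanGTP and RCC1; the record marks most hits as doubtful in a second field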
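Rango/importin beta premix (0.1/0.25 uM final), PBS + 1 mM DTT + 0.02% Tween-20 + 0.1% BSA; cpd 5 min RT; FRET pre-read; + RanGTP-RCC1 (0.6 uM Ran, 2 mM GTP, 0.2 uM RCC1); 45 min RT; FRET post-read, ex 430, em 486/530 nm.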
* = called active by the depositor; ? = inconclusive; / = not tested or not shown. An excerpt; rates above refer to the full screens.

The line under a structure holds: GLA inh pH 4.5, miR-21 reporter, Rango-impB inh, Rango dissoc inh
Cc1ccc(SC(C)C(=O)Nc2ncn[nH]2)cc1 (stereo not drawn)
    -3, -10%, -1.2%, -11%
O=C(CN1CCN(c2ncccn2)CC1)NCc1ccc2c(c1)OCO2
    -4, 5%, -0.4%, -15%
Cc1ccc(NNC(N)=S)cc1Cl
    3, 15%, 0.0%, 29%
Cc1ccc(O)c(NC(=O)C2CC(c3ccc(F)cc3)=NO2)c1 (stereo not drawn)
    -2, -14%, -0.3%, -1%
OC(CNC1CCCc2ccccc21)COc1c(Cl)cccc1Cl (stereo not drawn)
    -16, 8%, -3.3%, 0%
CC(C)[C@@H]1C=C(C(=O)O)O[C@H](OCCCCO)C1
    -8, 1%, -2.3%, 1%
CC(=O)Nc1cccc(NC(=O)CSc2nc(=O)n(CCN3CCOCC3)c3c2CCCC3)c1
    /, /, 8.6%, 15%
CC/C(O)=C1\C(=O)CC(c2ccccc2)CC1=NCCC(=O)O (stereo not drawn)
    -4, -3%, 0.8%, -5%
CN1CC(c2ccccc2)C2(COc3ccccc3C2=O)C12C(=O)Nc1ccccc12 (stereo not drawn)
    -17, 15%, ?, -10%
O=C(c1c[nH]c(C(=O)N2CCN(Cc3ccccc3)CC2)c1)C1CCCCC1
    5, 0%, 0.3%, -4%
O=C(O)c1ccc2nc(-c3ccccc3)sc2c1
    1, -22%, 0.4%, 25%
O=C(Nc1ccc2c(c1)OCCO2)NC1(C(F)(F)F)Oc2ccccc2O1
    -2, -3%, -5.7%, 11%
O=C(NC1CCCc2ccccc21)N[C@@H](Cc1ccccc1)C(=O)O (stereo partly drawn)
    /, 0%, -0.1%, -13%
Cc1ccc(CNCCNCCO)s1
    1, 0%, ?, 11%
O=C(NCCCN1CCOCC1)c1cnn2c(-c3ccccc3)cc(-c3ccccc3)nc12
    3, -3%, ?, -20%
CCCN1CCC(=O)N(CCN=[N+]=[N-])CC1
    /, 0%, 2.4%, 13%
O=C1/C(=C/c2ccccc2F)SC(=S)N1CC(=O)N1CCCCC1c1cccnc1 (stereo not drawn)
    /, 5%, -0.3%, 7%
Fc1ccc(Cn2c(-c3cscn3)nc3ccccc32)c(Cl)c1
    10, -4%, 0.0%, 18%
CCCCCNC(=O)Cc1ccc(S(=O)(=O)N2CCOCC2)s1
    /, /, -1.9%, -7%
COc1ccc(OC)c(N(CC(N)=O)S(=O)(=O)c2ccc(OC)c(OC)c2)c1
    3, -4%, 5.2%, 5%
COCCCNC(=O)C1CCCCN1S(=O)(=O)c1ccc(F)cc1 (stereo not drawn)
    2, 1%, 3.5%, -12%
Cc1ccc(-c2c3c(nc4sc(C(N)=O)c(N)c24)CCCC3)o1
    2, -14%, ?, ?
O=C(NCCC1CCCCN1S(=O)(=O)c1ccccc1)C(=O)NCc1ccccn1 (stereo not drawn)
    /, /, 0.6%, 2%
CC(=O)c1cc(C)ccc1OC(=O)c1ccncc1
    /, 0%, -0.2%, 0%
CC1=CCC(C(=O)O)(C(=O)N/N=C/c2cccs2)C(c2ccc([N+](=O)[O-])cc2)C1 (stereo not drawn)
    -16, -3%, 3.1%, 2%
CC1CCc2sc(C(=O)NCc3ccccn3)cc2C1 (stereo not drawn)
    /, /, -4.3%, 26%
O=C(Cc1ccc(Cl)cc1)Nc1ccc(-c2cc3ccccc3oc2=O)c(Cl)c1
    -1, 27%, -0.3%, 22%
Cc1ccc(S(=O)(=O)N2C[C@@H]3CCCC[C@@H]3[C@@H](C)[C@H]2c2cn(Cc3ccccc3)c3ncccc23)cc1
    /, /, -0.4%, 6%
CN1C2=CC=CC=CC2=[N+](C)C12C([N+](=O)[O-])=CC(=[N+]([O-])[O-])C=C2[N+](=O)[O-] (stereo not drawn)
    4, 1%, 1.1%, 7%
Cc1ccc(SC/C(O)=C(\C#N)c2nc3ccccc3s2)cc1
    -7, -5%, 0.0%, 0%
Cc1ccc(-n2c(-c3nn(C)c(C)c3Cl)n[nH]c2=S)cc1
    3, -9%, 0.0%, 7%
COc1ccccc1Nc1nc(N)nc(-c2oc3ccccc3c2C)n1
    4, 1%, -1.8%, 0%
O=C(O)c1ccc(NC(=O)c2ccccc2NC(=O)c2ccccc2Cl)cc1
    /, -6%, 3.1%, -4%
O=C(CCCN=C1NS(=O)(=O)c2ccccc21)OCC(=O)c1ccccc1Cl
    /, /, 0.2%, 19%
CC(C)(CN1CCN(c2ccccc2)CC1)NS(=O)(=O)c1ccccc1
    -5, 15%, -0.1%, -14%
Cc1cc(C)cc(SCc2noc(C(=O)NCC3CC3)c2C(=O)NCC2CC2)c1
    /, /, 0.9%, 8%
CS/C(=N\S(=O)(=O)c1ccc(N)cc1)NS(=O)(=O)c1cccs1
    -24, 2%, 1.7%, -5%
CCCCC1(Cc2cccc([N+](=O)[O-])c2)C(=O)N(c2ccccc2)N(c2ccccc2)C1=O
    4, -2%, 4.3%, 3%
COc1ccc(C2CC(c3cccs3)=NN2C(=O)CSc2nc(=O)n3ccccc3n2)cc1 (stereo not drawn)
    /, /, -2.4%, -2%
Cc1cc(C)cc(N2CN=c3s/c(=C\c4ccco4)c(=O)n3C2)c1
    -6, 10%, 2.6%, 4%
CCCN1CCCc2cc(CN)ccc21
    -2, 19%, ?, ?
CC1CC(C(F)(F)C(F)(F)F)n2nc(C(=O)O)cc2N1 (stereo not drawn)
    -7, 5%, -0.2%, -7%
Cc1cc(C)n2nc(SCc3c(F)cccc3Cl)nc2n1
    /, -43%, -0.4%, -1%
CCN(CC(=O)Nc1c(F)cccc1F)C(=O)Cc1c[nH]c2ccccc12
    /, /, 4.9%, 5%
Cc1ccc(-c2cc(C(F)F)n3ncc(C(=O)Nc4c(C)nn(Cc5ccccc5Cl)c4C)c3n2)cc1
    -14, -1%, -0.2%, 9%
O=C1NC(=S)N/C1=C/c1ccc(-c2c(Br)cc([N+](=O)[O-])cc2Br)o1
    -5, 0%, /, /
C=CC[N+]1(CC(=O)NCc2ccc(NC(C)=O)cc2)CCOCC1
    -9, 6%, -4.0%, 15%
CCCCN(C(=O)c1oc2ccc(OCC)cc2c1C)c1c(N)n(CCCC)c(=O)[nH]c1=O
    /, /, -2.1%, -15%
C=CCN1c2ccccc2C(=O)C(C)S1(=O)=O (stereo not drawn)
    /, /, 0.6%, -11%
Cc1ccccc1CSc1ncnc2ccccc12
    -4, -18%, -3.0%, 1%

Continued (five carried over from the part before).
The line under a structure holds: GLA inh pH 4.5, miR-21 reporter, Rango-impB inh, Rango dissoc inh
O=C1NC(=S)N/C1=C/c1ccc(-c2c(Br)cc([N+](=O)[O-])cc2Br)o1
    -5, 0%, /, /
C=CC[N+]1(CC(=O)NCc2ccc(NC(C)=O)cc2)CCOCC1
    -9, 6%, -4.0%, 15%
CCCCN(C(=O)c1oc2ccc(OCC)cc2c1C)c1c(N)n(CCCC)c(=O)[nH]c1=O
    /, /, -2.1%, -15%
C=CCN1c2ccccc2C(=O)C(C)S1(=O)=O (stereo not drawn)
    /, /, 0.6%, -11%
Cc1ccccc1CSc1ncnc2ccccc12
    -4, -18%, -3.0%, 1%
CCc1nc2sc3c(c2c(=O)n1NC(=O)CCl)CCCC3
    -4, 3%, 8.1%, 5%
O=C(NNC(=O)c1cccnc1)Nc1ccc([N+](=O)[O-])cc1
    13, 5%, -1.1%, -2%
CS(=O)(=O)N(CC(=O)Nc1ccc2c(c1)OCO2)Cc1ccccc1
    -5, -24%, -4.0%, -2%
COc1ccc(-c2c(C)nn3c(N4CCC(C(=O)NCCN(C)C)CC4)cc(C)nc23)cc1OC
    0, -5%, 2.4%, -7%
O=C(CN1CCN(C(=O)c2cccc(F)c2)CC1)NC1CCCCC1
    4, -3%, 3.5%, -9%
COc1cc(/C=C(\C#N)C(=O)NC(C)C)ccc1OCc1ccc(C(=O)O)cc1
    -3, -3%, -3.8%, 2%
COc1ccc(C2=NOC(Cn3c(Cc4ccc(Cl)cc4)nc4c3c(=O)n(C)c(=O)n4C)C2)cc1 (stereo not drawn)
    -4, -4%, 1.8%, -13%
CCN(CC)S(=O)(=O)c1ccc(NC(=O)C2c3ccccc3Oc3ccccc32)cc1
    1, 16%, -6.3%, ?
CCOC(=O)C1=C(COC(=O)/C=C/c2ccc(O)c(OC)c2)NC(=O)NC1C (stereo not drawn)
    /, /, ?, ?
Cc1cccc(-n2c(SCC(=O)O)nc3sc4c(c3c2=O)CCC4)c1
    1, 3%, -0.9%, -2%
CN(C)c1ccc(C=NC(CO)C(O)c2ccc([N+](=O)[O-])cc2)cc1 (stereo not drawn)
    -11, -5%, 1.1%, -20%
C/C(=N/Nc1ccc(C(=O)O)cc1)c1ccc2c(c1)Nc1ccccc1S2
    /, /, ?, ?
COC(=O)/C=C/c1ccc(OC(=O)c2ccncc2)cc1
    3, -6%, -1.4%, -24%
Cc1ccnc(N=Cc2nc(-c3ccccc3Br)oc2O)c1
    -2, -37%, 2.6%, -2%
CCN(CC(=O)Nc1ccc(NC(C)=O)cc1)C(=O)c1cc(-c2ccccc2Cl)nc2ccccc12
    /, /, 2.4%, ?
CCOC(=O)N1CCC(NC(=O)c2cc3c(-c4ccccc4F)nn(C)c3s2)CC1
    -1, 1%, -0.5%, -1%
COc1ccc(-c2nc(CS(=O)CC(=O)NCCCN3CCOCC3)c(C)o2)cc1OC (stereo not drawn)
    /, -6%, -0.3%, -14%
COc1cc(OC)c(CN2CCC(Cc3ccccc3)CC2)cc1Br
    /, 18%, -0.4%, 0%
O=C1C(Cc2ccccc2O)NC(=S)N1c1ccccc1 (stereo not drawn)
    2, -1%, 2.4%, -6%
O=C(Cn1nnc(-c2ccncc2)n1)Nc1ccc2c(c1)CCC2
    0, 5%, -1.4%, 1%
COCc1cc(C)nc(OCC(=O)N/N=C/c2ccc(-c3cccc([N+](=O)[O-])c3)o2)c1C#N
    1, -3%, /, /
COC(=O)[C@H](C)NC(=O)Nc1ccc(Oc2ccccc2)cc1
    9, -6%, -1.1%, 7%
O=C(NCCc1ccccc1)C1CC(=O)N(CCc2ccccc2)C1 (stereo not drawn)
    /, -5%, 3.0%, 24%
Cc1c(NC(=O)/C=C/c2cn(-c3ccccc3)nc2-c2ccc(F)cc2)c(=O)n(-c2ccccc2)n1C
    4, 0%, ?, ?
Cc1c(Br)cc(C(=O)NC2CCCCC2)c(C)c1C
    1, -3%, 1.5%, 12%
O=C(CCNC(=O)c1ccc(Br)cc1)NC1CCCc2ccccc21 (stereo not drawn)
    /, /, 3.8%, 8%
Cc1cc(C)cc(C(=O)NC(=S)Nc2ccc3c(c2)OCCO3)c1
    0, -66%, 0.0%, -7%
CCc1ccccc1NCc1cc(=O)oc2cc(C)ccc12
    /, -9%, 2.5%, 28%
CN(CC(=O)Nc1ccccc1Cl)CC(=O)Nc1cccc2ccccc12
    /, /, 2.4%, 16%
COc1ccc(CC(=O)Nc2nnc(C(C)C)s2)cc1OC
    -2, ?, 0.3%, -22%
COc1ccc(-c2noc(CCC(=O)Nc3ccc4c(c3)OCCO4)n2)cc1
    -3, -10%, -2.1%, 14%
CCOC(=O)c1c(C#N)cnn1-c1ccc(C)cc1
    -1, -7%, 0.2%, -6%
CCc1ccc(S(=O)(=O)N2CCN(c3ccccc3OC)CC2)cc1
    /, -6%, 4.2%, 8%
CCCCOCCCn1c(-c2ccco2)nc2nc3ccccc3nc21
    5, 9%, ?, -22%
CCCCOc1ccc(C(=O)N2CCNC(=O)C2CC(=O)OC(C)C)cc1 (stereo not drawn)
    /, 1%, -1.5%, 16%
COc1ccc(C(=O)NCc2n[nH]c(=S)n2-c2ccccc2)cc1OC
    1, 1%, 1.6%, 11%
